Env fusion inh: inhibitors of HIV-1 Env-driven cell-cell fusion, primary screen, HeLa-JRFL effector, CEM21 target cells, luciferase; inhibition, % at 12.3 µM; hit rate 1.1% among 360,000;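 active = mean replicate inhibition score of at least 50 and every replicate individually at or above 50; inconclusive = only one of the two criteria met; inactive = mean below 50 and not all replicates reaching 50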;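 also: 0% = plate neutral controls and 100% = maraviroc near 300 nM; one replicate is shown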
An asterisk follows results filed as active; ? = inconclusive; [ ] = dose if it differs, or a comment.

SMILES	Env fusion inh
Cn1cc(C[C@@H](N)C(=O)O)c2ccccc21	-5[16.7 µM]
Cc1ccc(S(=O)(=O)N[C@H](C(=O)NCCN=[N+]=[N-])C(C)C)cc1	14[16.7 µM]
COC(=O)C1=C(C)N(Cc2ccccc2C(F)(F)F)C(=NCc2ccc(OC)cc2)NC1c1cccc(C(F)(F)F)c1 (stereo not drawn)	-12
COc1ccc(-c2ccc3n(c2=O)C[C@H]2[C@H](CO)[C@@H](C(=O)NCC4CC4)N(C(=O)NC(C)C)[C@@H]32)cc1	-3[16.7 µM]
O=C(C[C@H]1C=C[C@H](NS(=O)(=O)c2ccccc2)[C@H](CO)O1)NCc1ccc(Cl)c(Cl)c1	-172[16.7 µM]
COc1ccc(CN(C)C[C@H]2Oc3ccc(NC(=O)Cc4ccccc4)cc3C(=O)N([C@H](C)CO)C[C@H]2C)cc1	-8[16.7 µM]
COc1ccccc1NC(=O)Nc1ccc2c(c1)C(=O)N(C)C[C@H](OC)[C@H](C)CN(C)[C@@H](C)CO2	-9[16.7 µM]
COCC(=O)N1C[C@H](C)[C@H](OC)CN(C)C(=O)c2ccc(NC(=O)c3ccc(OC)cc3)cc2OC[C@H]1C	0[16.7 µM]
Cc1noc(C)c1NC(=O)N(C)C[C@@H]1OCc2ccccc2-c2c(n(C)c3ccccc23)C(=O)N([C@@H](C)CO)C[C@@H]1C	46[16.7 µM]
O=C(N[C@H]1CC[C@@H](CCNS(=O)(=O)c2ccc(Cl)cc2)O[C@H]1CO)c1ccccn1	-1[16.7 µM]
C[C@@H]1CN([C@H](C)CO)C(=O)c2c(c3ccccc3n2C)-c2ccccc2CO[C@@H]1CN(C)C(=O)[C@H]1CCCN1C	-9[16.7 µM]
COc1ccc(S(=O)(=O)N(C)C[C@@H]2OCc3cn(nn3)CCCC(=O)N([C@@H](C)CO)C[C@@H]2C)cc1	11[16.7 µM]
COc1ccccc1S(=O)(=O)N(C)C[C@@H]1OCc2ccccc2-c2ccccc2C(=O)N([C@H](C)CO)C[C@H]1C	-6[16.7 µM]
CN(C)C(=O)[C@@H]1[C@@H](CO)[C@@H]2Cn3c(ccc(C4=CCCC4)c3=O)[C@H]1N2CC1CCOCC1	6[16.7 µM]
COCC(=O)N(C)C[C@H]1Oc2cc(C#CC3CCCC3)ccc2S(=O)(=O)N([C@@H](C)CO)C[C@H]1C	-8[16.7 µM]
CCCNC(=O)C[C@H]1CC[C@@H]2[C@H](COC[C@@H](O)CN2Cc2ccccc2F)O1	-4[16.7 µM]
C[C@]12Cc3ccccc3C1CC1=N[C@@H](c3ccccn3)O[C@@]13C[C@@H]2C(=O)N3C1CCN(Cc2ccccc2)CC1 (stereo partly drawn)	?
CC(C)(C)[S@](=O)N1Cc2cc(C(=O)N3CCc4ccccc4C3)nc(-c3cccc(-c4cccnc4)c3)c2[C@@H]1CCO	0[16.7 µM]
C/C=C/c1cnc2c(c1)C(=O)N([C@H](C)CO)C[C@@H](C)[C@@H](CN(C)C(=O)Nc1ccc(F)cc1)O2	-16[16.7 µM]
C[C@H](CO)N1C[C@H](C)[C@@H](CN(C)Cc2ccccc2)OCCCC[C@H](C)Oc2ccc(NC(=O)CCC(F)(F)F)cc2C1=O	-5[16.7 µM]
C[C@H](CO)N1C[C@H](C)[C@@H](CN(C)C(=O)[C@H](C)c2ccccc2)OCc2ccccc2-c2ccccc2C1=O	20[16.7 µM]
CO[C@@H]1CN(C)C(=O)c2ccc(NC(=O)Nc3ccc4c(c3)OCO4)cc2OC[C@H](C)NC[C@H]1C	-19[16.7 µM]
C[C@H](CO)N1C[C@H](C)[C@@H](CN(C)S(=O)(=O)c2ccsc2)OCc2ccccc2-c2ccccc2C1=O	-4[16.7 µM]
COc1ccc(S(=O)(=O)Nc2ccc3c(c2)CC(=O)N([C@@H](C)CO)C[C@@H](C)[C@H](CN(C)Cc2ccc(C(=O)Nc4ccccc4N)cc2)O3)cc1	3[16.7 µM]
COc1ccccc1C#Cc1cnc2c(c1)C(=O)N([C@H](C)CO)C[C@H](C)[C@@H](CN(C)C(=O)c1ccc3c(c1)OCO3)O2	18[16.7 µM]
COc1ccccc1S(=O)(=O)N(C)C[C@H]1Oc2cc(Br)ccc2S(=O)(=O)N([C@H](C)CO)C[C@H]1C	10
CN1C(=O)c2cc(NC(=O)c3ccccc3Cl)ccc2OC[C@@H]2O[C@@H](CC(=O)NCC(F)(F)F)CC[C@H]21	3[16.7 µM]
Cc1cc(C(=O)Nc2cccc3c2O[C@H](CN(C)Cc2ccc(Oc4ccccc4)cc2)[C@H](C)CN([C@H](C)CO)C3=O)n(C)n1	7[16.7 µM]
C[C@H](CO)N1C[C@H](C)[C@H](CN(C)Cc2ccc(C(=O)O)cc2)Oc2ccc(NC(=O)Cc3ccccc3)cc2C1=O	-35[16.7 µM]
CC(C)NC(=O)Nc1ccc2c(c1)C(=O)N([C@@H](C)CO)C[C@H](C)[C@@H](CN(C)Cc1ccc(-c3ccccc3)cc1)O2	7[16.7 µM]

In the list so far, these contain a CF3 group.
SMILES	Env fusion inh
COC(=O)C1=C(C)N(Cc2ccccc2C(F)(F)F)C(=NCc2ccc(OC)cc2)NC1c1cccc(C(F)(F)F)c1 (stereo not drawn)	-12
C[C@H](CO)N1C[C@H](C)[C@@H](CN(C)Cc2ccccc2)OCCCC[C@H](C)Oc2ccc(NC(=O)CCC(F)(F)F)cc2C1=O	-5[16.7 µM]
CN1C(=O)c2cc(NC(=O)c3ccccc3Cl)ccc2OC[C@@H]2O[C@@H](CC(=O)NCC(F)(F)F)CC[C@H]21	3[16.7 µM]

(list continues)
SMILES	Env fusion inh
O=C(C[C@@H]1CC[C@@H]2[C@H](COC[C@@H](O)CN2C(=O)CCN2CCCCC2)O1)NCc1ccncc1	3[16.7 µM]
COc1ccc(S(=O)(=O)Nc2ccc3c(c2)C(=O)N([C@@H](C)CO)C[C@H](C)[C@H](CN(C)C)OCCCC[C@H](C)O3)cc1	-5[16.7 µM]
C[C@H](CO)N1C[C@H](C)[C@H](CN(C)S(=O)(=O)c2cn(C)cn2)OCc2ccccc2-c2ccccc2C1=O	6[16.7 µM]
CN1C(=O)N(C)N(Cc2ccccc2)C(=O)N1Cc1ccccc1	-7
CN1C(=O)c2cc(NC(=O)Nc3ccc(Cl)cc3)ccc2OC[C@H]2O[C@H](CC(=O)NCCN3CCCCC3)CC[C@@H]21	-41[16.7 µM]
CS(=O)(=O)Nc1ccc2c(c1)[C@@H]1C[C@@H](CC(=O)NCC3CC3)O[C@H](CO)[C@@H]1O2	-10[16.7 µM]
CNC[C@@H]1OCCCC[C@H](C)Oc2ccc(NC(=O)NC(C)C)cc2C(=O)N([C@@H](C)CO)C[C@@H]1C	-3[16.7 µM]
COC(=O)C[C@@H]1CC[C@H]2[C@@H](COC[C@@H](O)CN2CCC(F)(F)F)O1	4[16.7 µM]
CO[C@@H]1CN(C)C(=O)c2cc(NC(=O)NC(C)C)ccc2OC[C@@H](C)N(C(=O)C2CCC2)C[C@@H]1C	-20[16.7 µM]
COC(=O)C1=C(C)N(CC(C)C)C(=S)NC1c1ccc(-c2ccccc2)cc1 (stereo not drawn)	10
C[C@@H]1CN([C@H](C)CO)C(=O)c2ccccc2-c2ccccc2CO[C@H]1CN(C)C(=O)NC1CCCCC1	-2[16.7 µM]
CC(C)[C@H]1COCCS(=O)(=O)N1Cc1ccccc1-c1cccc2c1sc1ccccc12	-65
CN(C)c1ccc(N(C)C)c(C(O)(c2ccccc2)c2ccccc2)c1	47
CCCCOCC1CN(CCCC)S(=O)(=O)c2c(F)cccc2O1 (stereo not drawn)	35
CN1C(=O)c2cc(NS(C)(=O)=O)ccc2OC[C@@H]2O[C@@H](CC(=O)N3CCOCC3)CC[C@@H]21	-1[16.7 µM]
O=C(C[C@H]1C[C@H]2c3cc(NC(=O)c4ccc5c(c4)OCO5)ccc3O[C@H]2[C@H](CO)O1)NCC(F)(F)F	3[16.7 µM]
CN1C(=O)c2cc(NC(=O)c3ccc(C(F)(F)F)cc3)ccc2OC[C@H]2O[C@H](CC(=O)NCc3ccc4c(c3)OCO4)CC[C@@H]21	?
COc1ccc(CN(C)C[C@H]2Oc3ccc(NC(=O)NC4CCCCC4)cc3CC(=O)N([C@H](C)CO)C[C@H]2C)cc1	-37[16.7 µM]
C[C@H]1CNCCN1c1ccc(N2CCS(=O)(=O)CC2)c(C#N)c1	11
O=C(Nc1ccc2c(c1)[C@@H]1C[C@@H](CC(=O)N3CCCCC3)O[C@H](CO)[C@@H]1O2)NC1CCCC1	9[16.7 µM]
O=C(C[C@@H]1C[C@H]2c3cc(NC(=O)C4CCOCC4)ccc3O[C@H]2[C@H](CO)O1)NCC(F)(F)F	-6[16.7 µM]
CC=Cc1ccc2n(c1=O)C[C@H]1[C@H](CO)[C@@H](C(=O)NCC)[C@@H]2N1Cc1cccc(Cl)c1 (mixture of isomers)	-7[16.7 µM]
C[C@@H]1CN([C@H](C)CO)C(=O)Cc2cc(NC(=O)CCN3CCOCC3)ccc2O[C@@H]1CN(C)Cc1ccc(-c2ccccc2)cc1	-1[16.7 µM]
CO[C@H]1CC[C@@H]2CCOc3c(C#N)cccc3C(=O)N(C)C[C@@H](C)C(=O)N(C)C[C@@H]1O2	-4[16.7 µM]
C[C@H](O)C#Cc1cnc2c(c1)C(=O)N([C@H](C)CO)C[C@@H](C)[C@H](CN(C)CC1CCOCC1)O2	8[16.7 µM]
CO[C@H]1CN(C)C(=O)c2ccc(NS(C)(=O)=O)cc2OC[C@H](C)N(C(=O)c2ccc3c(c2)OCO3)C[C@@H]1C	10[16.7 µM]
Cc1noc(C)c1S(=O)(=O)Nc1ccc2c(c1)C(=O)N([C@@H](C)CO)C[C@H](C)[C@@H](CN(C)S(=O)(=O)c1cccs1)OCCCC[C@@H](C)O2	-17[16.7 µM]
CCCCNc1cccc2c1S(=O)(=O)N[C@@H](C)CO2	-1
C[C@@H]1CN([C@@H](C)CO)C(=O)c2cccc(NC(=O)C3CCCCC3)c2O[C@@H]1CN(C)S(=O)(=O)c1cn(C)cn1	-18[16.7 µM]
CN1C(=O)c2cc(NS(C)(=O)=O)ccc2OC[C@H]2O[C@@H](CC(=O)N3CCOCC3)CC[C@H]21	-1[16.7 µM]
O=C(/C=C(\Nc1cccc(Cl)c1F)c1ccccc1)c1ccccc1	-36
O=C(Cc1cn(Cc2ccccc2)c2ccccc12)Nc1ccc(Nc2cccnc2)c(Br)c1	-11
C[C@@H]1CN([C@H](C)CO)C(=O)c2cc(NC(=O)CCCN(C)C)ccc2O[C@H]1CN(C)C(=O)NC1CCCCC1	-3[16.7 µM]
Cc1noc(C)c1NC(=O)Nc1ccc2c(c1)C(=O)N(C)[C@@H]1CC[C@H](CC(=O)NCc3ccc(Cl)cc3)O[C@@H]1CO2	18[16.7 µM]
CCCCCCCCN1C(=O)[C@@H](CC(=O)NCc2ccccc2)C[C@@]2(C(=O)OC)C1=C[C@H](C(C)(C)C)O[C@@H]2C	65*
COc1ccc(CNS(=O)(=O)c2cc(Cl)ccc2N2CC[C@@H](O)C2)cc1	-56
C[C@@H]1CN([C@H](C)CO)C(=O)c2cccc(NC(=O)CCCCCC(=O)Nc3ccccc3N)c2O[C@@H]1CN(C)S(=O)(=O)c1ccc(Cl)cc1	7[16.7 µM]
COc1cccc(S(=O)(=O)N2CC3(CN(C(=O)Nc4cccc(F)c4)[C@H](CO)c4[nH]c5cc(OC)ccc5c43)C2)c1	80*[16.7 µM]
CO[C@@H]1CN(C)C(=O)c2cc(NC(=O)Nc3ccc(Cl)cc3)ccc2OC[C@@H](C)N(C(=O)Nc2c(C)noc2C)C[C@@H]1C	-23[16.7 µM]
C#CCNC(=O)C1=C[C@@H](C(C)(C)C)[C@H](CCCO)[C@@H](OCC)O1	-3[16.7 µM]
COc1ccccc1C(=O)N1CCN(C(=O)[C@@H](Cc2ccccc2)NC(=O)[C@H]2O[C@@H](n3ccc(N)nc3=O)[C@H](O)[C@@H]2O)CC1	-12
CCCNC(=O)N[C@H]1CC[C@H](CCn2cc(-c3cccc(F)c3)nn2)O[C@@H]1CO	?
COc1ccc2c3c(n(C)c2c1)[C@@H](CO)N(C(=O)Nc1ccc(F)cc1)CC31CCN(S(=O)(=O)c2cn(C)cn2)CC1	2[16.7 µM]
COC(=O)C[C@@H]1C[C@@H]2c3cc(NC(=O)NC4CCCC4)ccc3O[C@@H]2[C@@H](CO)O1	-7[16.7 µM]
C[C@@H]1CCCCO[C@@H](CN(C)Cc2ccncc2)[C@H](C)CN([C@@H](C)CO)C(=O)c2cc(NC(=O)Cc3ccccc3)ccc2O1	-18[16.7 µM]
COc1cccc(-c2ccc([C@@H]3[C@H](CO)N4C(=O)CN(C(=O)C5CCCC5)C[C@@H]34)cc2)c1	-6[16.7 µM]
CC(C)[C@H]1COCn2nncc2CC[C@@H](Cc2ccccc2)C(=O)N1	-28[16.7 µM]

Taken from above:
For Env fusion inh, COc1cccc(-c2ccc([C@@H]3[C@H](CO)N4C(=O)CN(C(=O)C5CCCC5)C[C@@H]34)cc2)c1 has the entry -6[16.7 µM]
For Env fusion inh, COc1ccccc1C(=O)N1CCN(C(=O)[C@@H](Cc2ccccc2)NC(=O)[C@H]2O[C@@H](n3ccc(N)nc3=O)[C@H](O)[C@@H]2O)CC1 has the entry -12
For Env fusion inh, C[C@@H]1CCCCO[C@@H](CN(C)Cc2ccncc2)[C@H](C)CN([C@@H](C)CO)C(=O)c2cc(NC(=O)Cc3ccccc3)ccc2O1 has the entry -18[16.7 µM]
For Env fusion inh, CC(C)[C@H]1COCn2nncc2CC[C@@H](Cc2ccccc2)C(=O)N1 has the entry -28[16.7 µM]

Compound activity from PubChem.

Not all compounds are listed; count on the stated rates, not on these rows.
